HNF4A DNA FP: change in binding of human HNF4A to DNA, primary screen, biochemical, fluorescence polarization, FITC-DNA; AID 1224865, 2016; 1 h; 0.3% of 360,000 active; activity change, % at 10 µM; in the data active = activity change above about 30%, passing the limit was not always enough;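 also: controls were the assay level and a saturating level of protein; the project sought stronger binding though the title names inhibitors; some compounds called inactive have numbers as strong as hits; positive values seem to mean higher polarization but the record does not say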
Target sequence (P41235 whole entry, looked up): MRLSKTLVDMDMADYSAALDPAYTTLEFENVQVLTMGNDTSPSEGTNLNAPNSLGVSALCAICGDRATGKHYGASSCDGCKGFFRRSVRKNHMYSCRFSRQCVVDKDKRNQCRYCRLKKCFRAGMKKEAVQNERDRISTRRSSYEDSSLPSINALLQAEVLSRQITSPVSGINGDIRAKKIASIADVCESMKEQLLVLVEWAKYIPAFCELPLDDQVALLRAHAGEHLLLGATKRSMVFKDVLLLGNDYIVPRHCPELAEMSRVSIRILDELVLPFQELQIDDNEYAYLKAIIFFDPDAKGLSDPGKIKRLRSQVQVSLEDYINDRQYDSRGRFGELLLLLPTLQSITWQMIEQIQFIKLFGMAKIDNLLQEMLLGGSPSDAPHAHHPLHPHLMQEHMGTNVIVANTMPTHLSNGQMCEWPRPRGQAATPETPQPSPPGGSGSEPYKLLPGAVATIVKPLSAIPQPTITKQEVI
Ecoli rRNA inh: reduced GFP signal of wild-type E. coli, primary screen, bacterial rRNA inhibitor project, GFP/RFP fluorescence, OD600, single point | 1.6% of 350,000 active | E. coli WT GFP vs humanized-ribosome RFP mutants, 24 h; active compounds read low; DMSO median 0, no signal -100 | GFP signal change (wild-type ribosome), % (test concentration not listed) | AID 720706, 2013;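 active = significant combined selectivity score with lowered wild-type GFP, culture density cut under 30%, mutant RFP and density less affected; inactive = any of these conditions unmet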; also: one replicate is shown; some compounds called inactive have numbers as strong as hits
FGF22 binding: binders of human FGF22 protein, primary screen, FGF22 synaptogenesis inhibitor project, biophysical, thermal shift, single point; recombinant FGF22 thermal shift, SYPRO orange fluorescence; percent of sucrose octasulfate shift, DMSO zero; Fibroblast growth factor 22 (Homo sapiens), Q9HCT0; calls only at 9.99 µM; 1.5% of 340,000 active;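 active = melting point raised past a set limit in the mean and every replicate; inconclusive = no clear call; three in four hits are not shown here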
Target sequence (Q9HCT0 whole entry, looked up): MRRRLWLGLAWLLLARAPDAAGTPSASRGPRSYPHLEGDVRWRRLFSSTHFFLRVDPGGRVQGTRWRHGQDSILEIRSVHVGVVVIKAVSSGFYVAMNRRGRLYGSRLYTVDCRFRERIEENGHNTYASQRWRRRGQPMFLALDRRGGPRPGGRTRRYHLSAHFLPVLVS
ALR H2O2 inh: inhibitors of human ALR sulfhydryl oxidase, primary screen, biochemical, H2O2 detection, HRP-luminol luminescence, single point; FAD-linked sulfhydryl oxidase ALR (Homo sapiens), P55789; purified ALR, DTT oxidation; inhibition, % (concentration not given with the values); 3.8% of 290,000 active; AID 485317, 2010;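 active = mean and each replicate at 75% or more; inconclusive = only one of the two met; inactive = neither met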;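 also: stock transfer was 7.5 nL into about 7.5 µL; 0% = neutral wells and 100% = wells with inactivated enzyme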
Target sequence (P55789 whole entry, looked up): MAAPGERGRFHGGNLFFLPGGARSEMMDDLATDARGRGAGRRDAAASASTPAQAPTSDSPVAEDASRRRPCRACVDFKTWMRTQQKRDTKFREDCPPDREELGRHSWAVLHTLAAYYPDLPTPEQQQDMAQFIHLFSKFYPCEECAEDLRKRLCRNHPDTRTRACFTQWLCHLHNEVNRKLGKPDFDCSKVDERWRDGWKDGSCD
Vif TR-FRET: inhibitors of Vif binding to APOBEC3G peptide, primary screen, biochemical, TR-FRET, GST-Vif 1-94, biotin-A3G peptide, dose response retest (AID 1117319); Virion infectivity factor (Human immunodeficiency virus type 1 group M subtype B (isolate …; TR-FRET GST-Vif / biotin-A3G peptide binding; higher % means a stronger effect; test concentration not given here; strong numbers were not always called active; inhibition, %, or IC50 in µM where a hit was titrated; 0.57% of 260,000 active;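 active = above the screen mean plus three standard deviations and confirmed in dose response; inconclusive = results disagree or hit not tested in dose response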;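 also: Vif residues 1-94 fused to GST binding biotinylated APOBEC3G peptide 110-148; 0% = full assay without inhibitor and 100% = GST in place of GST-Vif; retest series ran down from 100 µM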
MLL AF4-AF9 inh: inhibitors of AF4 peptide binding to AF9, primary screen, biochemical, AlphaScreen, biotin-AF4 peptide, FLAG-AF9, single point; Protein AF-9 (Homo sapiens), P42568; inhibition, % at 10 µM; 0.47% of 350,000 active; AID 651704, 2012;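 active = every replicate reaching a set inhibition limit, whatever the replicate mean, cut at about 25% in these data; inconclusive = mean inhibition reaches that limit but some replicates miss it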;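 also: 0% = plate neutral control median and 100% = total signal loss; the record names both 10 and 1 µM as test concentration; the first replicate is given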
E coli growth: E. coli growth inhibition, primary screen, OD600; Escherichia coli growth, 23 h; active compounds read low; OD600 absorbance (test concentration not listed); 0.21% of 330,000 active;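 active = OD600 absorbance below the run mean of sample wells minus 3.6 SD, in any replicate, cut at about 0.56 in these data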;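 also: stock transfer was 300 nL into about 60 µL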
Ecoli rRNA inh OD600: recorded beside Ecoli rRNA inh, whose call it bears; OD600 change, %; measured here: OD600 growth;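 optical density of the mix in the first replicate; 0 = DMSO median and -100 = no signal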
Ecoli rRNA inh RFP: also measured in Ecoli rRNA inh; calls as there; RFP signal change, %; measured here: RFP humanized mutant strains;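 first replicate; 0 = DMSO median and -100 = no signal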
An asterisk follows results filed as active; i = inactive; ? = inconclusive; . = not tested or not shown; + = active, no number. This is a subset; count on the stated rates, not on these rows.

compound | HNF4A DNA FP | Ecoli rRNA inh | Ecoli rRNA inh OD600 | Ecoli rRNA inh RFP | FGF22 binding | ALR H2O2 inh | Vif TR-FRET | MLL AF4-AF9 inh | E coli growth
COc1ccc(C(C[N+](=O)[O-])c2c(C)[nH]n(-c3ccccc3)c2=O)cc1 (stereo not drawn) | -0.7 | 5 | 2 | -2.8 | i | -42 | -7% | 0.2 | 0.62
COC(=O)CC(=O)CSc1nc(C)cc(C)c1C#N | -5.2 | . | . | . | . | 5 | 12% | . | 0.7
O=C(C[n+]1ccn(CCCNP2(=O)C=C(c3ccccc3)OC(c3ccccc3)=C2)c1)c1cccs1 | 0.4 | -13 | -10 | 1.9 | i | 0 | -2% | 8.9 | 0.73
COC(=O)c1ccsc1NC(=O)CN1CCN(c2ccc(F)cc2)CC1 | 0.8 | . | . | . | . | 3 | -2% | . | 0.73
COc1ccc(OCC(O)CNC(=O)c2ccc(Br)cc2)cc1 (stereo not drawn) | -0.7 | . | . | . | . | 1 | 3% | . | 0.73
C[C@@H]1CN([C@H](C)CO)C(=O)c2cc(NC(=O)Cn3cnnn3)ccc2O[C@H]1CN(C)Cc1ccc(Oc2ccccc2)cc1 | . | 0 | -5 | -0.8 | i | . | . | 0.8 | .
COc1ccc(C2=Nc3ccccc3NC(=O)C2N(CCCn2ccnc2)C(=O)c2cccc(S(C)(=O)=O)c2)cc1 (stereo not drawn) | 1.4 | 6 | 4 | -0.2 | i | . | . | 3.9 | .
C[C@@H]1CCCCO[C@@H](CN(C)C(=O)Nc2ccccc2)[C@@H](C)CN([C@H](C)CO)C(=O)c2cc(NS(C)(=O)=O)ccc2O1 | . | -2 | 2 | -4.2 | i | . | . | -5.6 | .
O=c1c2ccccc2nnn1CSc1nnc(-c2cccs2)n1Cc1ccccc1 | -6.0 | . | . | . | . | -17 | -6% | . | 0.67
CCOC(=O)c1ccc(NC(=O)c2nc[nH]c2C(=O)N(C)CCO)cc1 | 4.8 | 3 | 0 | -0.7 | i | . | 6% | -3.3 | .
Cc1ccc(S(C)(=O)=O)cc1C(=O)OCC(=O)N1CCCC1=O | -2.8 | 7 | 13 | -0.4 | i | . | -6% | -5.1 | 0.7
CCCC#Cc1cnc2c(c1)C(=O)N([C@@H](C)CO)C[C@@H](C)[C@H](CN(C)C(=O)c1ccc(F)cc1)O2 | . | 1 | -5 | -1.6 | i | . | . | 0.5 | .
CSCCC(NC(=O)c1ccccc1)C(=O)OCC(=O)NCc1ccco1 (stereo not drawn) | 0.6 | 8 | 17 | 2.6 | i | -3 | . | -3.8 | 0.69
CCCCNCCCCOc1ccccc1 | -1.5 | . | . | . | . | -3 | -2% | . | 0.72
C[C@@H]1CN([C@@H](C)CO)C(=O)c2cc(NC(=O)CCC(F)(F)F)ccc2O[C@H]1CN(C)Cc1ccc(C(F)(F)F)cc1 | . | -3 | -13 | -0.2 | i | . | . | 2.4 | .
CN1C[C@@H]2[C@H](c3ccccc31)[C@H](CO)N2C(=O)Nc1cccc(F)c1 | . | 6 | 9 | -2.6 | i | . | . | -2.2 | .
CCOc1ccccc1NC(=S)/C(=C(\[O-])c1ccc2c(c1)OCCO2)[n+]1ccc(CC)cc1 | 0.3 | . | . | . | . | -8 | -4% | . | 0.62
NC(=O)c1cccc(-c2ccnc3c2CC(C(=O)NCCC(F)(F)F)O3)c1 (stereo not drawn) | 0.0 | 8 | 3 | 2.9 | i | . | . | -3.4 | .
CCOc1ccc(NC(=O)CN(C)C(=O)c2cc(C)nc3ccccc23)cc1OCC | 0.6 | . | . | . | i | -6 | -9% | -0.3 | 0.67
CCCN1CCC(=NNc2ccc(C(=O)O)cc2)CC1 | 5.1 | -1 | 5 | -2.6 | i | 53 | 3% | 2.1 | 0.71
CCC(=O)N1CCCCN2[C@H](CO)[C@H](c3ccc(C#Cc4cccnc4)cc3)[C@@H]2C1 | . | -2 | -14 | -0.1 | i | . | . | -4.0 | .
COc1cc2c(cc1NC(=O)CSc1nnc(Cc3cccs3)n1Cc1ccco1)oc1ccccc12 | -1.2 | -4 | 5 | -9.4 | i | -6 | -2% | 6.8 | 0.75
COc1ccc(NC(=O)CN(C)C(C)C(=O)NC(=O)NC2CCCCC2)cc1 (stereo not drawn) | 0.1 | 0 | -10 | 0.9 | i | -4 | 7% | -8.2 | 0.71
COCC(=O)Nc1ccc(S(=O)(=O)NCC2CCCO2)cc1 (stereo not drawn) | 1.7 | 17 | 6 | 4.3 | i | . | -6% | -11 | 0.65
CCc1cc2c(=O)n(-c3ccc(C)cc3)cnc2s1 | 4.1 | . | . | . | . | -13 | >100µM* | . | 0.68
COC(=O)c1cnc(N2CCCN(S(=O)(=O)c3ccc(C(F)(F)F)cc3)CC2)nc1C(F)(F)F | 10.0 | 11 | 14 | 1.2 | i | -11 | -26% | -2.3 | 0.71
COc1ccccc1CC(=O)Nc1ccccc1C(=O)O | -2.4 | . | . | . | . | 1 | 14% | . | 0.74
Cc1noc(C)c1S(=O)(=O)N(C)C[C@H]1OCCCC[C@H](C)Oc2ccc(NC(=O)c3ccccc3)cc2C(=O)N([C@@H](C)CO)C[C@H]1C | . | -1 | 0 | 2.4 | i | . | . | -1.5 | .
CCC(=O)N1[C@H](C(=O)NC2CCC2)[C@@H](CO)[C@@H]2Cn3c(ccc(-c4ccc(F)cc4)c3=O)[C@@H]21 | . | 1 | 0 | -2.8 | i | . | . | -2.2 | .
O=C(NCC[C@H]1CC[C@H](NS(=O)(=O)c2cccc(F)c2)[C@@H](CO)O1)C1CC1 | . | 1 | 5 | -5.2 | i | . | . | 1.8 | .
COc1ccccc1OCC(=O)Nc1sc2c(c1C(=O)NCC1CCCO1)CCC2 (stereo not drawn) | 5.2 | . | . | . | . | 13 | 5% | . | 0.65
COc1ccc(-c2noc(N3CCCC(C(=O)Nc4ccccc4F)C3)n2)cc1 (stereo not drawn) | -1.7 | 1 | 13 | 0.6 | i | -14 | . | -5.0 | 0.65
COc1cccc(Cn2cnc3c(N)c(C)c(C)cc32)c1 | -3.5 | -22 | -27 | -1.8 | i | 33 | 15% | 6.3 | 0.65
CN1C[C@@H]2C(c3ccccc3)C3(c4ccccc4)CC2(C3)[C@H]1c1ccccc1 (stereo partly drawn) | 1.8 | -29 | -44 | -3.4 | i | -11 | -4% | 10 | .
CCOC(=O)c1sc(NC(=O)c2cccs2)cc1C | 0.5 | . | . | . | . | -4 | 9% | . | 0.75
COc1ccc(C2NC(C(=O)O)Cc3c2[nH]c2ccccc32)cc1OC (stereo not drawn) | -6.1 | . | . | . | . | -9 | 1% | . | 0.64
COc1ccccc1N1CC(C(=O)Nc2ccc3c(c2)OCO3)CC1=O (stereo not drawn) | 2.3 | 9 | 10 | 1.1 | . | -4 | 15% | 0.1 | 0.7
CC(C)(C)CC(C)(C)NC(=O)c1ccccc1 | 1.1 | 12 | 12 | 2.5 | i | -2 | -3% | -0.4 | 0.67
O=C(N/N=C/C=C/c1ccco1)c1cnccn1 | -2.6 | 9 | 14 | 3.2 | i | 1 | . | -12 | .
O=C(NCc1ccc(F)cc1)c1cc(C2CCCCN2C(=O)c2ccccn2)on1 (stereo not drawn) | -1.9 | 10 | 6 | 1.6 | i | . | . | 1.0 | .
COC(=O)c1c(F)c(F)c(NCCO)c(F)c1F | -1.6 | 16 | 15 | -0.2 | . | -3 | -1% | . | 0.68
O=C(c1cc(-c2ccc(Cl)c(Cl)c2)on1)N1CCCCC1 | 1.8 | . | . | . | . | -10 | -2% | . | 0.62
C=CCNC(=O)C1(S(=O)(=O)c2ccccc2)CC=CC1 | 0.5 | 4 | -1 | -6.4 | i | 7 | . | -1.4 | 0.62
NS(=O)(=O)c1ccc(CCNC(=O)C2CCCN2S(=O)(=O)c2cccc3nsnc23)cc1 (stereo not drawn) | 1.8 | 5 | 8 | -1.2 | i | -3 | . | -0.5 | 0.66
Cc1cc(NS(=O)(=O)c2ccc(OCCNS(C)(=O)=O)cc2)no1 | -1.1 | 14 | 0 | 0.7 | i | -7 | 7% | 3.0 | 0.68
C[C@@H]1CCCCO[C@@H](CN(C)C(=O)Nc2cccc3ccccc23)[C@H](C)CN([C@H](C)CO)C(=O)c2cc(NS(=O)(=O)c3ccc(Cl)cc3)ccc2O1 | . | 3 | 2 | 2.3 | + | . | . | -2.9 | .
O=[N+]([O-])c1c(NCCO)cc(N2CCC3(CC2)OCCO3)c2nonc12 | -0.4 | . | . | . | . | -12 | -8% | . | 0.63
O=C(COc1ccc2c(-c3ccccc3)cc(=O)oc2c1)NC(Cc1c[nH]c2ccccc12)C(=O)O (stereo not drawn) | 0.2 | -11 | -2 | -1.7 | i | . | -8% | -2.9 | 0.69
Cc1ccc(-c2ccc3c(c2)O[C@H](CN(C)C(=O)CN(C)C)[C@@H](C)CN([C@@H](C)CO)S3(=O)=O)cc1 | . | -4 | -8 | -2.2 | i | . | . | 7.7 | .
O=C(N/C(=C/c1ccccc1)C(=O)N1CCOCC1)c1ccc([N+](=O)[O-])cc1 | -0.5 | 9 | 5 | -0.8 | i | . | -6% | 0.4 | 0.66

More structures:
compound | HNF4A DNA FP | Ecoli rRNA inh | Ecoli rRNA inh OD600 | Ecoli rRNA inh RFP | FGF22 binding | ALR H2O2 inh | Vif TR-FRET | MLL AF4-AF9 inh | E coli growth
CCOC(=O)c1nnn(CC(=O)N2N=C(c3ccc(Cl)cc3)CC2c2ccccc2)c1C(=O)OCC (stereo not drawn) | 1.9 | . | . | . | . | -7 | -13% | . | 0.7
Cn1ncc(Br)c1C(=O)N/N=C/c1cccc(OC2CSC2)c1 | 1.2 | 7 | -3 | -0.5 | i | -7 | -6% | -4.3 | .
C/C(=N\N(c1ccccc1)c1ccccc1)c1ccc(O)cc1 | 3.1 | -68 | -80 | -20 | i | 60 | . | 0.6 | .
COc1ccc(-c2cnnc(N/N=C/c3ccc(-c4ccc([N+](=O)[O-])cc4)o3)n2)cc1 | 41 | -10 | -10 | 4.9 | i | . | 11% | -0.5 | .
CCn1c(SCC(=O)N2CCCCC2C)nnc1-c1ccco1 (stereo not drawn) | -1.4 | 3 | -1 | 0.9 | i | -25 | . | 0.8 | 0.68
NC(=O)CCCn1c(C(=O)c2cc(Cl)c(N)c(Cl)c2)c2ccc(C(F)(F)F)cc2[n+]1[O-] | 3.8 | -12 | -4 | -0.3 | i | 28 | . | 8.0 | 0.68
C=CCOc1cccc(C(=O)N2CCCC(Nc3ccc(F)cc3)C2)c1 (stereo not drawn) | 1.9 | -26* | -19* | -2.4* | i | 59 | . | 2.7 | 0.73
COC(=O)N/N=C(\C)c1ccccc1Br | 0.2 | . | . | . | . | -8 | 11% | . | .
CCOC(=O)CSC1=NC(=O)CS1 | 6.5 | . | . | . | . | 48 | ? | . | 0.7

Screening results as filed in PubChem.
